Calb FLC – affects C. albicans growth with fluconazole; C. albicans CaCi-2 (fluconazole-resistant clinical isolate) + fluconazole, Alamar Blue growth, 48 h; growth inhibition, % (test concentration not listed); actives 0.57% (n = 300,000); AID 1979;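 active = most replicates above 75%; inconclusive = exactly half above 75%; inactive = most below 75%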;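 note: all wells also contain fluconazole at 8 µg/ml as a sub-toxic cotreatment; 0% = median of DMSO wells and 100% = median of geldanamycin control wells; wells of about 8 µL received 7.5 nL stock; the first replicate is given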
HNF4A DNA FP – change in binding of human HNF4 alpha to DNA; HNF4a-FITC DNA binding, fluorescence polarization, 1 h; activity change, % at 10 µM; actives 0.3% (n = 360,000); AID 1224865; in the data active = activity change above about 30%, passing the limit was not always enough;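 note: controls were the assay level and a saturating level of protein; the project sought stronger binding though the title names inhibitors; some compounds called inactive have numbers as strong as hits; positive values seem to mean higher polarization but the record does not say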
Target sequence (P41235 whole entry, looked up): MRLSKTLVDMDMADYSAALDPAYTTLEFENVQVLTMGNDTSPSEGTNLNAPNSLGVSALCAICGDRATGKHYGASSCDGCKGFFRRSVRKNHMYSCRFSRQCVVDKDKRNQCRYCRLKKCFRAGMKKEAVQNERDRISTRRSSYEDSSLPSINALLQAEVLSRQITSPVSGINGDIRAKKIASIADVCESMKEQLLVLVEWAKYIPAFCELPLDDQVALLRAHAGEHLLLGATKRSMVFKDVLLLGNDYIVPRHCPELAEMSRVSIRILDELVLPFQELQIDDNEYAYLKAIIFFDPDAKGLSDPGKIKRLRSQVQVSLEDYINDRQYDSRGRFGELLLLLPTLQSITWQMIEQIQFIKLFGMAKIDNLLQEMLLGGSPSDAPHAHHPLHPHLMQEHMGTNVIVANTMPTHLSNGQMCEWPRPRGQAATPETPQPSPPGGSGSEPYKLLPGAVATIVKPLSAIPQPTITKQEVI
Vif TR-FRET – inhibitors of Vif binding to APOBEC3G peptide, primary screen, biochemical, TR-FRET, GST-Vif 1-94, biotin-A3G peptide, dose response retest (AID 1117319). TR-FRET GST-Vif / biotin-A3G peptide binding; higher % means a stronger effect; test concentration not given here; strong numbers were not always called active. inhibition, %, or IC50 in µM where a hit was titrated. actives 0.57% (n = 260,000);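 active = above the screen mean plus three standard deviations and confirmed in dose response; inconclusive = results disagree or hit not tested in dose response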;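 note: Vif residues 1-94 fused to GST binding biotinylated APOBEC3G peptide 110-148; 0% = full assay without inhibitor and 100% = GST in place of GST-Vif; retest series ran down from 100 µM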
ALR H2O2 inh – blocks human ALR sulfhydryl oxidase activity; P55789; purified ALR, DTT oxidation, H2O2 HRP-luminol luminescence; inhibition, % (concentration not given with the values); actives 3.8% (n = 290,000);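 active = mean and each replicate at 75% or more; inconclusive = only one of the two met; inactive = neither met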;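 note: stock transfer was 7.5 nL into about 7.5 µL; 0% = neutral wells and 100% = wells with inactivated enzyme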
Target sequence (P55789 whole entry, looked up): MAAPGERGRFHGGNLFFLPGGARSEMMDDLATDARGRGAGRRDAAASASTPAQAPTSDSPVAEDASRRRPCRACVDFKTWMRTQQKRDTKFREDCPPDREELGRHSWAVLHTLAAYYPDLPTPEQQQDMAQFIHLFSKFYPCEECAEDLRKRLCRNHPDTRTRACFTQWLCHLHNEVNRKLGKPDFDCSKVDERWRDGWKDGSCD
LANA-H2B inh – blocks KSHV LANA binding to histone H2A/H2B; cell-free LANA-H2A/H2B peptide, fluorescence polarization; inhibition, % (concentration not given with the values); actives 0.6% (n = 320,000); in the data active = inhibition mostly above about 10%, no sharp cut-off; inactive = mostly below about 6.7%;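 note: stock transfer was 7.5 nL into about 10 µL; 0% = median of vehicle wells and 100% = median of positive control wells; one replicate is shown; the record names a cut of 25% in any replicate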
RanGTP-Impb inh – inhibitors of RanGTP-importin-beta interaction, primary screen, biochemical, FRET, CFP-Ran, YFP-importin-beta, homogeneous. cell-free CFP-Ran/YFP-importin-beta FRET ratio. inhibition, % (no concentration beside the values). AID 2216. actives 1.1% (n = 300,000);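 active = most replicates above 15%; inconclusive = exactly half above 15%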;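 note: 0% = DMSO wells and 100% = Ran loaded with GDP instead of GTP; wells of about 40 µL received 100 nL stock; the first replicate is given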
Beta2AR agonist – human beta-2 adrenergic receptor agonism by FAP; Am2.2-beta2AR cells, FAP receptor internalization, flow cytometry; reference of the scale not given here; response, % (no concentration beside the values); P07550; AID 504454; actives 0.43% (n = 340,000);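 active = response above a set limit, near 3 SD of response in nonfluorescent compounds, cut at about 42% in these data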;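 note: stock transfer was 100 nL into about 11 µL; a reference agonist was the positive control; negative values mostly stem from fluorescent compounds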
Target sequence (P07550 whole entry, looked up): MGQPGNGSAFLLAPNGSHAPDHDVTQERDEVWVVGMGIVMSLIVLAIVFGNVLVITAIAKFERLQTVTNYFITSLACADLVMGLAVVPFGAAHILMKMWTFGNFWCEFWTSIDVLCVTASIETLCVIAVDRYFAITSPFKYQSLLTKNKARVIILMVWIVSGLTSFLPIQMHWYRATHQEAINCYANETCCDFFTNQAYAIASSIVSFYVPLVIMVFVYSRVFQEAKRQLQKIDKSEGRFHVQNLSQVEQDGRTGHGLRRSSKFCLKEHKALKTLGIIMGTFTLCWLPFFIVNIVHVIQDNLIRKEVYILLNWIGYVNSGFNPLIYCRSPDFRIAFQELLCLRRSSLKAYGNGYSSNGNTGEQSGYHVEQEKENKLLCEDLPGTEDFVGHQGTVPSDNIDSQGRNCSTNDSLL
* marks the source's active call; other numbers are inactive results; ? = inconclusive; nt = not tested or not shown.

SMILES	Calb FLC	HNF4A DNA FP	Vif TR-FRET	ALR H2O2 inh	LANA-H2B inh	RanGTP-Impb inh	Beta2AR agonist
C=CCn1c(COc2cccc(C)c2C)nnc1SCC(=O)N1CCN(c2ccccc2)CC1	6.1	0.5	nt	-1.1	2.9	-2.1	0.5
COc1ccc(CCNC(=O)CC(=O)NCCc2ccc(OC)cc2)cc1	-5.7	2.4	-10.3%	-4.3	2.0	1.5	-2.1
COC(=O)c1ccccc1NC(=O)Nc1cc(C)ccn1	17.1	-0.5	nt	-11.2	2.1	-3.7	13.5
CCN1CCN(CC(O)COc2ccc3c(C)cc(=O)oc3c2)CC1 (centres undefined)	-10.6	-3.6	-14.5%	-14.1	-4.9	-1.9	-4.3
CC(C)CN(C(=O)C1CSC2(C)CCC(=O)N12)c1c(N)n(Cc2ccccc2)c(=O)[nH]c1=O (centres undefined)	-4.3	-4.6	4.3%	2.7	-4.1	2.9	-0.6
CCOC(=O)Cn1c2[n+](c3ccccc31)CC(O)CS2 (centres undefined)	9.9	5.2	-1.1%	-3.3	-12.5	5.4	-4.0
O=C(CN1C(=O)NC2(CCc3ccccc32)C1=O)NCc1cccc(C(F)(F)F)c1 (centres undefined)	nt	-1.7	-6.2%	-3.6	-5.0	nt	2.5
COc1ccc(-c2cn3nc(C)c(C)nc3n2)cc1OC	nt	6.7	1.3%	nt	-4.9	nt	15.8
O=C(NCCN1C(=O)S/C(=C/c2cccnc2)C1=O)C1CC(=O)N(Cc2ccccc2)C1 (centres undefined)	8.0	-3.2	6.5%	-4.0	0.8	-2.0	-8.8
N#CCSc1nnc(Cc2ccc3c(c2)OCO3)o1	1.5	16.3	6.5%	nt	2.1	1.1	1.4
COc1ccc(NC(=O)COC(=O)Cn2cnc3ccccc3c2=O)c(OC)c1	nt	-2.4	-2.4%	-1.3	-0.3	nt	2.1
Cc1ccc(C(=O)OCC(=O)NC(=O)NCc2ccccc2)cc1C	nt	2.7	-3.7%	-3.0	-2.6	nt	-7.0
Cc1cc(NCC2CCCO2)n2c(nc3ccccc32)c1C#N (centres undefined)	-11.4	-3.1	3.6%	0.0	2.1	9.0	-1.1
CCC(/C=N/NC(=O)C(N)=O)CC	-17.7	1.1	-3.0%	98.1*	-3.1	-5.1	2.9
COCc1ccc(C(=O)NC2CCCN(Cc3ccccc3F)C2)o1 (centres undefined)	-14.5	-4.1	-0.7%	0.3	1.1	5.7	0.2
C#CCOCCOCCOCCNc1nc(N2CCN(C(=O)Cn3cc(CC(C)O)nn3)CC2)nc(N2CCN(C(=O)Cn3cc(CC(C)O)nn3)CC2)n1 (centres undefined)	-10.3	-2.0	-3.7%	-1.4	-4.0	-0.1	-1.7
Cn1nc(C(=O)Nc2cccnc2)c2ccccc2c1=O	22.1	-2.5	-1.8%	-14.5	-2.4	1.5	-0.3
COc1cc(C(CCN2CCOCC2)c2c(OC)cc(OC)c3c2OC(=O)CC3c2ccc(N(C)C)cc2)cc(OC)c1OC (centres undefined)	-0.8	0.3	nt	nt	3.9	-5.0	7.1
CCn1c(O)c(C=Nc2ccccc2)sc1=S	-8.4	nt	3.1%	5.8	0.9	36.9*	nt
O=C(c1cccnc1)N1N=C(C2CC2)CC1(O)C(F)(F)F (centres undefined)	?	1.5	3.0%	5.8	11.4*	7.5	7.8
O=C(COC(=O)C1(c2ccccc2F)CCCC1)N1CCOCC1	19.7	5.6	-2.3%	-3.3	3.3	-0.2	-2.1
Cn1c(CNc2nc3ccccc3n2C)nc2ccccc21	3.3	0.1	29.2%	-3.2	3.7	0.6	-5.5
COC(=O)c1ccccc1NC(=O)CN(C)S(=O)(=O)c1ccc(OC)cc1	-2.1	0.8	-1.9%	-6.6	-1.3	4.2	-1.9
O=C1Nc2ccccc2/C1=N\N=C\c1ccc(O)c(O)c1	14.3	-4.0	nt	98.7*	5.6	-0.5	5.5
CC1=C(C(=O)Nc2ccccc2)C2(CCCCC2)C(C(N)=O)C(=S)N1 (centres undefined)	-3.9	4.3	nt	-3.7	0.5	9.9	0.7

Copied from above, 13 compounds:
SMILES	Calb FLC	HNF4A DNA FP	Vif TR-FRET	ALR H2O2 inh	LANA-H2B inh	RanGTP-Impb inh	Beta2AR agonist
Cc1cc(NCC2CCCO2)n2c(nc3ccccc32)c1C#N (centres undefined)	-11.4	-3.1	3.6%	0.0	2.1	9.0	-1.1
CCC(/C=N/NC(=O)C(N)=O)CC	-17.7	1.1	-3.0%	98.1*	-3.1	-5.1	2.9
COCc1ccc(C(=O)NC2CCCN(Cc3ccccc3F)C2)o1 (centres undefined)	-14.5	-4.1	-0.7%	0.3	1.1	5.7	0.2
C#CCOCCOCCOCCNc1nc(N2CCN(C(=O)Cn3cc(CC(C)O)nn3)CC2)nc(N2CCN(C(=O)Cn3cc(CC(C)O)nn3)CC2)n1 (centres undefined)	-10.3	-2.0	-3.7%	-1.4	-4.0	-0.1	-1.7
Cn1nc(C(=O)Nc2cccnc2)c2ccccc2c1=O	22.1	-2.5	-1.8%	-14.5	-2.4	1.5	-0.3
COc1cc(C(CCN2CCOCC2)c2c(OC)cc(OC)c3c2OC(=O)CC3c2ccc(N(C)C)cc2)cc(OC)c1OC (centres undefined)	-0.8	0.3	nt	nt	3.9	-5.0	7.1
CCn1c(O)c(C=Nc2ccccc2)sc1=S	-8.4	nt	3.1%	5.8	0.9	36.9*	nt
O=C(c1cccnc1)N1N=C(C2CC2)CC1(O)C(F)(F)F (centres undefined)	?	1.5	3.0%	5.8	11.4*	7.5	7.8
O=C(COC(=O)C1(c2ccccc2F)CCCC1)N1CCOCC1	19.7	5.6	-2.3%	-3.3	3.3	-0.2	-2.1
Cn1c(CNc2nc3ccccc3n2C)nc2ccccc21	3.3	0.1	29.2%	-3.2	3.7	0.6	-5.5
COC(=O)c1ccccc1NC(=O)CN(C)S(=O)(=O)c1ccc(OC)cc1	-2.1	0.8	-1.9%	-6.6	-1.3	4.2	-1.9
O=C1Nc2ccccc2/C1=N\N=C\c1ccc(O)c(O)c1	14.3	-4.0	nt	98.7*	5.6	-0.5	5.5
CC1=C(C(=O)Nc2ccccc2)C2(CCCCC2)C(C(N)=O)C(=S)N1 (centres undefined)	-3.9	4.3	nt	-3.7	0.5	9.9	0.7

(listing goes on)
SMILES	Calb FLC	HNF4A DNA FP	Vif TR-FRET	ALR H2O2 inh	LANA-H2B inh	RanGTP-Impb inh	Beta2AR agonist
Cc1ccc2c(c1)-c1c(cnn1CC(=O)N(CCC#N)c1ccccc1)CO2	25.7	-0.4	3.2%	nt	-2.0	2.5	4.0
Cc1cc(OC(=O)c2cccs2)ccc1C(C)C	-5.7	-0.5	-6.8%	6.7	1.4	2.5	2.9
CCc1ccc(NC(=O)C(=O)c2ccccc2NC(C)=O)cc1	nt	1.1	-1.2%	nt	-2.7	nt	-2.5
CCN(CC)c1ccc(NC(=O)CN2CCN(CC(=O)Nc3ccccc3OC)CC2)cc1	-15.2	1.4	-2.5%	nt	-3.1	-0.7	7.4
Cc1c(NC(=O)/C(C#N)=C/c2cccs2)c(=O)n(-c2ccccc2)n1C	2.4	-0.1	-1.3%	-0.3	-1.0	-0.7	12.6
Cc1ccc(C)c(OCc2nnc(SCC(=O)NC(=O)NCc3ccco3)o2)c1	0.8	1.8	-6.5%	-2.2	0.0	-0.6	-3.0
S=C1N(c2ccccc2)CN(CCN2CCOCC2)CN1c1ccccc1	4.1	0.0	9.3%	-4.1	8.0	-2.1	-1.3
COc1cc(/C=C2/SC(=S)N(CC(=O)O)C2=O)ccc1OC(=O)c1ccco1	-7.2	29.4	nt	97.7*	-1.4	-0.6	6.6
Cc1ccc(C)c2sc(NC(=O)C3CC3)nc12	-4.0	1.3	nt	2.8	1.9	2.7	-5.0
CCn1c(=O)c2cc(C(=O)N(C)c3ccccc3F)sc2c2ccccc21	12.6	1.3	71.3%	nt	0.8	1.1	5.6
CC(=O)NC(Cc1c[nH]c2ccccc12)C(=O)Nc1ccc2c(c1)OCO2 (centres undefined)	-2.2	-2.0	-4.9%	-6.1	2.6	-4.7	-1.9
O=S(=O)(/N=S1/CC=CCN1S(=O)(=O)c1ccccc1)c1ccccc1 (centres undefined)	3.7	0.2	-3.1%	99.2*	12.0	-2.9	2.0
O=c1[nH]c(C2CCN(S(=O)(=O)/C=C/c3ccccc3)CC2)nc2c1nnn2Cc1ccccc1	3.3	0.9	-0.6%	5.6	-7.4	1.7	0.1
c1ccc2c(c1)nc(N1CCOCC1)c1ccccc12	-4.9	-3.8	-6.3%	0.4	-1.9	-3.3	-2.5
COC(=O)c1cnn(-c2ccccc2)c1-n1cccc1C=O	10.2	-2.5	5.6%	-5.7	-4.2	6.6	-3.6
COC(=O)/C=C/c1ccc(OC(=O)OC)c(OC(=O)OC)c1	-8.2	-3.0	nt	98.0*	8.6	4.3	5.4
Cc1ccc(NC2(c3nnnn3-c3c(C)cccc3C)CCCCC2)cc1	17.2	2.8	nt	8.5	0.1	1.4	14.9
CCOc1ccc(C(C)=O)cc1CSc1nnc(-c2ccncc2)n1CCOC	2.4	0.0	17.3%	-5.8	-5.4	-2.7	3.6
CCOC(=O)[C@H]1[C@H]2COc3ccc(C)cc3[C@@H]2N2C(=O)c3cc(Cl)ccc3NC(=O)[C@@]12C	nt	-0.7	nt	-4.8	-0.2	nt	9.8
COC(=O)CSc1ccnc2cc(Cl)ccc12	8.2	0.7	nt	-15.5	-6.1	2.0	4.0
Fc1ccc(C2N(c3ccccc3)C(=S)N3CCCN23)cc1 (centres undefined)	4.0	2.1	9.1%	-1.3	5.6	-1.7	2.9
CCCCN(CCCC)CC(O)COc1ccccc1C(=O)Nc1ccccc1 (centres undefined)	-15.3	0.6	2.2%	3.5	-5.0	-1.1	2.3
CC(CNc1ccccc1O)C(=O)O (centres undefined)	1.7	-9.5	6.17µM*	?	0.2	1.0	5.7
CCOc1cc(NC(=S)Nc2ccc(Cl)cc2)c(OCC)cc1NC(C)=O	18.6	2.8	10.2%	-13.5	-5.1	2.1	4.8
CC(Sc1nnc(CNc2cccc3ccccc23)n1-c1ccccc1)C(=O)N/N=C/c1ccco1 (centres undefined)	3.8	-3.6	2.4%	-13.6	-0.3	5.2	-4.7
Cc1noc(C)c1S(=O)(=O)NCc1ccc2c(c1)OCO2	-6.9	2.5	-3.0%	-10.2	2.2	-0.9	8.8
COc1ccccc1C(=O)NCCC(=O)N1CC(=O)Nc2ccccc21	-9.5	-3.2	13.5%	-10.2	0.2	-0.1	1.8
CC(C)(C)C(=O)Nc1cc(S(=O)(=O)N2CCCCC2)ccc1N1CCCCC1	2.5	-2.1	nt	-11.0	-0.5	2.7	6.5
CCN1CCN(CC(=O)Nc2ccc(C(C)=O)cc2)CC1	-3.3	-0.7	-4.2%	-9.5	1.1	?	1.5
COc1ccc(N(C(=O)c2cnccn2)C(C(=O)NC2CCCCC2)c2ccc(Cl)cc2)cc1 (centres undefined)	0.7	-1.8	-3.7%	30.9	-0.4	0.9	-3.4

Compound profiles, as listed above:
O=S(=O)(/N=S1/CC=CCN1S(=O)(=O)c1ccccc1)c1ccccc1 (centres undefined) across the screens: Calb FLC: 3.7; HNF4A DNA FP: 0.2; Vif TR-FRET: -3.1%; ALR H2O2 inh: 99.2*; LANA-H2B inh: 12.0; RanGTP-Impb inh: -2.9; Beta2AR agonist: 2.0
Cc1ccc(C)c2sc(NC(=O)C3CC3)nc12 across the screens: Calb FLC: -4.0; HNF4A DNA FP: 1.3; Vif TR-FRET: nt; ALR H2O2 inh: 2.8; LANA-H2B inh: 1.9; RanGTP-Impb inh: 2.7; Beta2AR agonist: -5.0

Screens from PubChem.
